TRPV1 potentiator = HTS Assay for Compounds that Act as Potentiators of the Vanilloid Receptor 1; Transient receptor potential cation channel subfamily V member 1 (Homo sapiens), Q8NER1; TRPV1-expressing cells, Fluo-8 calcium influx, capsaicin EC20 potentiation; host cell line not named in the record; control for the full effect not named in the record; potentiation, % at 8.33 µM; 0.02% of 320,000 active; AID 540277, 2011; active means potentiation above 80%; inconclusive means 30% to 80%; inactive means below 30%; further: 0% is about no effect
Target sequence (Q8NER1 whole entry, looked up): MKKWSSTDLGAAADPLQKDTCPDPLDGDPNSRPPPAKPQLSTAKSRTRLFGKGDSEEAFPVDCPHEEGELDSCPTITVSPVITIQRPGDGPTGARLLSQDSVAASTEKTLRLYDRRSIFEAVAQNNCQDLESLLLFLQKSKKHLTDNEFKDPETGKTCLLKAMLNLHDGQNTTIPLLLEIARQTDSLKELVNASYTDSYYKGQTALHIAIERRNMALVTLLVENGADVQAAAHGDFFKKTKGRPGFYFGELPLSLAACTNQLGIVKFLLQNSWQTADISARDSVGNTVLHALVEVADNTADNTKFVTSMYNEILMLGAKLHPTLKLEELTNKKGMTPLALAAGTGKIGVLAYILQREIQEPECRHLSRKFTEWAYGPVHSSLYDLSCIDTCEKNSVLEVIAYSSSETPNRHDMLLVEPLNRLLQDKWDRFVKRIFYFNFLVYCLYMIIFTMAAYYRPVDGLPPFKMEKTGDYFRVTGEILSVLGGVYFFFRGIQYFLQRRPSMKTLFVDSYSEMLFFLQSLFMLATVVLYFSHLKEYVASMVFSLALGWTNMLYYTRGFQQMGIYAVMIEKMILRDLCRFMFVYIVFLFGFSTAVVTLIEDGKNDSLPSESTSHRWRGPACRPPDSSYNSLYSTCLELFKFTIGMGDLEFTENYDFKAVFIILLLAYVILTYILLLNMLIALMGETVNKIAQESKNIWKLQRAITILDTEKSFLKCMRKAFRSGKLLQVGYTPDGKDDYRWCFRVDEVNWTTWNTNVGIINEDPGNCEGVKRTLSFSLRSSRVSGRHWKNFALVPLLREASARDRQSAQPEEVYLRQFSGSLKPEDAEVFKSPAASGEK
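Cells expressing TRPV1 were dye-loaded with Fluo-8 and read kinetically: 10 s baseline, 3 min after compound (agonist portion), then 2 min after EC20 capsaicin (allosteric enhancer portion). Calcium-bound dye fluorescence at 480/520 nm.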
gsp antagonist = qHTS for Antagonists of gsp, the Etiologic Mutation Responsible for Fibrous Dysplasia/McCune-Albright Syndrome: qHTS; AID 624288, 2012; 0.4% of 340,000 active; Potency, µM (titrated, usually from 76.9 µM), inactives show at the highest dose activity change, negative = inhibition, usual class: inhibitors; gsp-mutant cells, cAMP HTRF, 30 min; control for the full effect not named in the record; active = falling curve of any shape with a large fitted effect; inconclusive = falling curve, mostly with a smaller effect; inactive = flat or rising curve; cell line not stated here;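 further: intracellular cAMP measured with PDE inhibitor Ro 20-1724 present during compound exposure; potency means the concentration at half of the fitted maximal effect; on the % scale 0 is the no-effect control and ±100 the full control effect; nearly all actives have a fitted effect of over 65% in size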
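HTRF cAMP read-out (cAMP-d2 plus anti-cAMP antibody-K in lysis buffer, 30 min RT). Before lysis, cells are exposed to compounds with […] for 30 min at 37C in DPBS containing Ca/Mg, BSA and Tween 20.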
gsp agonist = qHTS for Agonist of gsp, the Etiologic Mutation Responsible for Fibrous Dysplasia/McCune-Albright Syndrome: qHTS; 0.13% of 340,000 active; gsp mutant cells, cAMP HTRF, 30 min; control for the full effect not named in the record; Potency, µM (highest dose often 76.9 µM), for inactives: at the highest dose activation (cAMP increase), hits mostly activators; active = well fitted activation curve with a large enough effect; inconclusive = small, poorly fitted or top-dose-only effect, or another doubt; inactive = no such curve, though single readings can be large or run the other way; cell line not stated here;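 further: phosphodiesterase inhibitor Ro 20-1724 added with compounds to block cAMP breakdown; potency means the concentration at half of the fitted maximal effect; nearly all actives have a fitted effect of over 60% in size; about a fifth of the inactives were tested at one dose only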
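Cells in DMEM/10% FBS with G418 were pretreated with compounds in DMSO plus […] (300 uM stock) for 30 min at 37C. cAMP was measured by HTRF (cAMP-d2 plus anti-cAMP antibody-K) after 30 min at room temperature.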
ClpP mod = qHTS Assay for Activators of ClpP; ATP-dependent Clp protease proteolytic subunit (Bacillus subtilis (strain 168)), P80244; purified B. subtilis ClpP, FRET peptide cleavage, 20 min; Potency, µM (series often up to 57.5 µM), without a hit: at the highest dose activity change, negative = active; 1.9% of 340,000 active; active = well fitted falling curve with a large enough effect; inconclusive = small, poorly fitted or top-dose-only effect; inactive = no such curve, though single readings can be large or run the other way; further: potency means the concentration at half of the fitted maximal effect; the source files actives as falling curves though it sought activators and does not explain the sign; nearly all actives have a fitted effect of over 65% in size; many hits overshoot -100%
Target sequence (P80244 whole entry, looked up): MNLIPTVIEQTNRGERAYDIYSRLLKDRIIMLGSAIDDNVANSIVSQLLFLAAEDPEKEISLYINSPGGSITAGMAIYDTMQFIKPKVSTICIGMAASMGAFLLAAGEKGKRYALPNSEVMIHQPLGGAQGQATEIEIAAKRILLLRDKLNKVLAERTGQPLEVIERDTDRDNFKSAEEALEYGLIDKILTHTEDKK
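Purified B. subtilis ClpP, 10 microg/mL final in Tris/HCl pH8 with KCl, BSA, glycerol and Tween-20, cleaved an Abz/nitrotyrosine-quenched decapeptide. Fluorescence (ex 320, em 430) was read at 0 and 20 min at room temperature. Delta was normalized to 5.8 microM ADEP and DMSO/no-enzyme controls.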
CtBP-E1A blk = qHTS Assay for Inhibitors of the CtBP/E1A Interaction; CtBP / adenovirus E1A interaction (AlphaScreen); AlphaScreen GST-E1A/His-CtBP binding, 1536-well; hits give low values; control for the full effect not named in the record; activity change, % (test concentration not listed); 0.49% of 340,000 active; AID 651724, 2012; in the data active means activity change below about -65%; inconclusive means about -30% to -65%; inactive means above about -30%; further: on the % scale 0 is the no-effect control and ±100 the full control effect; compound concentration not given in the record
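GST-E1A and His-tagged CtBP (125 nM each as 5X stock) were preincubated with pin-transferred compound for 2 h at 37 °C in the dark, then glutathione donor and nickel acceptor beads were added for 1 h before AlphaScreen reading.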
Sfp PPTase inh = qHTS Assay for Inhibitors of Bacillus subtilis Sfp phosphopantetheinyl transferase (PPTase); 4'-phosphopantetheinyl transferase ffp (Bacillus subtilis), Q9F4F7; Biochemical Sfp PPTase activity, qHTS; Potency, µM, for the others: max response, negative = inhibition, hits mostly inhibitors; 3.5% of 310,000 active; active means well fitted inhibition curve with a large enough effect; inconclusive means small, poorly fitted or top-dose-only effect, or another doubt; inactive means no such curve, though single readings can be large or run the other way;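 further: the enzyme is Sfp with the accession as filed and its product quenches rhodamine fluorescence; potency means the concentration at half of the fitted maximal effect; 0% = enzyme reaction without inhibitor and -100% = no enzyme wells; top concentration of the series not given in the record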
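Fluorescence-quenching assay: 15 nM Sfp-PPTase preincubated 15 min at room temperature with compound, then 5 uM rhodamine-CoA and 12.5 uM BHQ-2-labelled YbbR peptide added. Fluorescence (ex 525/em 598 nm) read at start and after 30 min; difference gives rate.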
Menin MLL FP FL = qHTS Assay for Inhibitors Targeting the Menin-MLL Interaction in MLL Related Leukemias: Competition With Fluorescein Labeled MLL-derived Peptide | Fluorescence polarization, fluorescein-MLL peptide displacement from menin | FP activity change, % at 61.4 µM | 290,000 tested, under 10 active; inconclusive = falling polarisation curve, or a change in total fluorescence; inactive = total fluorescence flat and polarisation flat or rising; no compound was filed as active; the % refers to the polarisation; negative = inhibition;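 further: % of control where 0% means no effect; inhibitors lower the polarisation; unlabelled MLL peptide was the positive control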
The depositor's hits bear a star; ? = inconclusive; · = not tested or not shown; & = joins results of further samples; [ ] = dose if it differs, or a comment.

SMILES	TRPV1 potentiator	gsp antagonist	gsp agonist	ClpP mod	CtBP-E1A blk	Sfp PPTase inh	Menin MLL FP FL
CCOC(=O)COc1ccc(Br)cc1/C=C\c1[nH]c(=O)[nH]c(=O)c1[N+](=O)[O-]	9	-11%	-36%[inhibitor]	1.2%	?	-20%	2.9
CCOc1ccc(C(=O)COc2ccc(NC(C)=O)cc2)cc1	-12	-5%	-53%[inhibitor]	2.3%	-3	6%	1.2
COc1ccc(-c2cc3nc(C)c(CCC(=O)NCc4ccc(F)cc4)c(C)n3n2)c(OC)c1	-8	?	19%[15.4 µM]	·	9	-2%	1.0
COc1ccc(-c2sc3cc4c(cc3c2C#Cc2cncn2C)OCO4)cc1	·	-1%	2%	4.7%	·	·	·
CC[C@@H]1C=C(C)C[C@H](C)C[C@H](OC)[C@H]2O[C@@](O)(C(=O)C(=O)N3CCCC[C@H]3C(=O)O[C@H](/C(C)=C/[C@@H]3CC[C@@H](O)[C@H](OC)C3)[C@H](C)[C@@H](O)CC1=O)[C@H](C)C[C@@H]2OC	0	·	·	·	·	-4%	2.3
C/C(CC(=O)Nc1ccc(Cl)c(C(F)(F)F)c1)=N\NC(N)=S	-14	-1%	4%	·	-1	4%	-4.5
COc1ccccc1CNC(=O)N1CCN(S(=O)(=O)c2ccc(Cl)cc2)CC1	-13	-2%	-6%[15.4 µM]	·	5	17%	1.1
CN(C(=O)COc1ccc([N+](=O)[O-])cc1)C1CCS(=O)(=O)C1 (stereo not drawn)	0	1%	-7%	·	5	1%	-0.9
CCCSc1nc(N2CCOCC2)c2c(c1C#N)CC(C)(C)SC2	-13	-3%	6%	-9.3%	-4	-2%	0.1
COc1ccc(CC(=O)NNC(=O)CCC(=O)Nc2cc(C)ccc2C)cc1	-2	3%	-3%[15.4 µM]	·	-2	11%	0.6
Cc1ccc(NCC(=O)N/N=C/c2cccn2C)cc1	6	8%	11%[15.4 µM]	·	-19	5%	2.0
CCn1cc(C(=O)NCc2ccc(C)cc2)c(=O)c2cc(S(=O)(=O)N(C)C)ccc21	-1	-11%	23%	-0.3%	-9	-10%	-14
CCC(CC)N1CCN(S(=O)(=O)c2ccc(OC)cc2)CC1	-3	4%	7%[15.4 µM]	-1.3%	-3	-23%	-0.6
O=C(Nc1cccc([N+](=O)[O-])c1)C1CCN(C(=O)Cc2ccccc2)CC1	-21	-7%	24%	0.9%	9	9%	2.0
CCOc1ccc(Cc2nnc(SCC(=O)Nc3ccc(OC)cc3)n(N)c2=O)cc1	5	-29%	-38%	-4.3%	2	·	·
CC1=C(C(=O)N2CCOCC2)CC(CC(=O)NC2CC2)C(=O)N1Cc1ccccc1 (stereo not drawn)	·	·	-78%	0.8%	-15	·	·
CC(C)n1cc(-c2nc(C(=O)NN)cs2)c(=O)n(Cc2ccccc2)c1=O	10	-5%	3%[15.4 µM]	-0.3%	-17	5%	0.8
CCOc1ccc(C(C)=O)cc1COC(=O)c1cccnc1SC	-5	4%	5%[15.4 µM]	·	3	3%	5.6
C=CCn1c(SCC(=O)c2cc(C)n(C)c2C)nnc1-c1ccncc1	5	-4%	1%[15.4 µM]	-3.3%	-4	-6%	-4.5
Cc1ccc(N2C(=O)c3ccccc3C2C(=O)c2ccc(C)c(C)c2O)cc1 (stereo not drawn)	6	-1%	-2%[15.4 µM]	-0.8%	-23	?	1.5
CN(C)c1nc(NN)nc(Nc2ccc(F)cc2)n1	8	5%	19%[15.4 µM]	-1.6%	-12	-6%	-2.2
Cc1sc2ncn(CC(=O)OCC(=O)NC(C)(C)C)c(=O)c2c1C	?	-1%	-2%	-2.4%	-4	-3%	-3.0
O=C(OCC(=O)N1CCCc2ccccc21)c1cc(S(=O)(=O)N2CCOCC2)ccc1F	-12	-5%	46%[15.4 µM]	·	0	·	·
Cc1cc(N2C(=O)CCC2=O)ccc1NC(=O)c1cccs1	14	2%	0%	-0.2%	-2	3%	-1.4
CC(=O)Nc1nnc(SCC(=O)c2ccc(F)cc2)s1	-3	2%	-7%[15.4 µM]	·	0	4%	-0.4
CCCn1nnc(NC(=O)C(C)Oc2ccc(Cl)cc2Cl)n1 (stereo not drawn)	2	-6%	-22%	0.0%	4	-4%	-0.6
COc1cc(C(=S)N2CCOCC2)ccc1OS(=O)(=O)c1ccccc1[N+](=O)[O-]	10	-5%	1%[15.4 µM]	·	-3	-20%	3.5
Cc1nn(C)c(C)c1S(=O)(=O)NC1CCCC1	6	10%	5%	-2.7%	-1	16%	-0.3
CSc1ccccc1NC(=O)CN(C)C(=O)c1ccc2c(c1)OCCO2	5	-5%	24%[15.4 µM]	-0.4%	12	-2%	·
COCCNC(=O)C(NC(=O)C1CCCCC1)C(C)C (stereo not drawn)	2	8%	-2%	·	14	8%	-1.0
Cc1ccc(NC(=O)COC(=O)CNC(=O)c2ccc3ccccc3c2)c([N+](=O)[O-])c1	12	-11%	-17%	·	-22	4%	8.5
O=C(O)c1ccc(NS(=O)(=O)c2cc(Cl)ccc2Cl)cc1	17	15%	-16%	0.2%	6	10%	0.3
CC(=O)c1cccc(Oc2cc(NN3CCCCC3)c([N+](=O)[O-])cc2[N+](=O)[O-])c1	2	-21%	28%	0.3%	?	18%	-9.7
Clc1cc(Cl)cc(C2=NCCC(c3ccccc3)O2)c1 (stereo not drawn)	8	·	·	·	·	-25%	1.2
Cc1ccc(-c2ncccc2OC(=O)C23CC4CC(CC(C4)C2)C3)cc1	-1	-10%	-8%	?	5	-4%	1.3
Cc1ccc(-n2c(=O)c(C#N)cc3c(=O)n4ccccc4nc32)cc1C	-2	-1%	-38%[inhibitor]	?	6	18%	-2.3
Cc1cccc2c1CC(C)(C)N/C2=C\C(N)=O	-1	-15%	-10%	0.5%	-4	16%	0.7
CCOC(=O)N1CCN(C(=O)c2cn(C)c3ccc(S(=O)(=O)N(C)C4CCCCC4)cc3c2=O)CC1	-1	-1%	19%	0.3%	·	15%	·
Cc1ccc(-c2nnc(-c3ccc4ccccc4c3)o2)cc1	·	4%	3%	14µM*	0	·	·
COc1c(OC(C)=O)c(=O)n2c3ccccc3c3ccnc1c32	-14	-13%	-90%[inhibitor]	-30%	-9	·	·
CCOC(=O)Cn1nc(C)n(-c2ccc(Cl)cc2)c1=O	4	6%	-13%[15.4 µM]	·	-11	13%	-0.5
COc1ccc(CNC(=O)CC23CC4CC(CC(C4)C2)C3)cc1OC	-18	-3%	20%[15.4 µM]	·	5	6%	-3.2
O=C(NCCN1CCN(c2ccccc2)CC1)Nc1ccccc1Br	0	6%	0%	-2.7%&1.6%	·	9%	-5.0
Cc1ccc(NC(=O)C2CCN(S(=O)(=O)c3ccc(Cl)c(C(F)(F)F)c3)CC2)nc1	-21	6%	11%[15.4 µM]	·	8	·	·
CCOc1ccc(-n2c(C)nc3cc(C(=O)NCc4ccc5c(c4)OCO5)ccc32)cc1	7	-13%	-15%	0.6%	0	-16%	0.2
CCc1nc(NCc2ccccc2)c(C#N)c2c1CCCC2	-5	5%	-8%	3.5%	11	-6%	0.7
COc1cccc([C@@H]2CC=C(C(=O)O)[C@H](c3ccccc3F)N2S(=O)(=O)c2ccc(C)cc2)c1	-6	-8%	5%	-0.9%	·	·	·
COCCOC(=O)c1c(C)nc(SCC(=O)Nc2ccc(C)cc2)c(C#N)c1-c1ccco1	7	9%	-1%	-17%	5	23%	-0.5
Cc1onc(-c2ccccc2Cl)c1C(=O)NCc1nc(-c2ccc(C(F)(F)F)cc2)no1	-28	-11%	21%	·	2	9%	2.2
CCOc1cc(Br)ccc1S(=O)(=O)NCc1ccccc1	-1	-13%	-18%	?	-6	-2%	2.2
CCOC(=O)C(C)n1cnc2c(nnn2Cc2ccc(C)cc2)c1=O (stereo not drawn)	-19	4%	2%	0.0%	18	4%	1.7
COc1ccc(Nc2nc(N)nc(CSc3nc(C)cc(C)n3)n2)cc1	19	-6%	7%[15.4 µM]	-25%	-22	6%	7.9
O=S(=O)(NCC(c1ccco1)N1CCCCC1)c1cccc(C(F)(F)F)c1 (stereo not drawn)	-11	-1%	5%	1.6%	-2	·	·
O=C(CCC(=O)Nc1ccccc1)NNC(=O)c1ccccc1Cl	-3	6%	7%	-1.2%	·	-2%	-1.8
Cn1nc(C(F)(F)F)c2cc(C(=O)O)sc21	-4	3%	-3%[15.4 µM]	·	·	7%	2.5
COc1ccc(C(CC(=O)N2CCOCC2)c2c(O)cc(OC)cc2OC)cc1 (stereo not drawn)	11	1%	·	-0.4%	9	10%&10%	-0.6&0.7
CSc1nc(S(=O)(=O)c2ccccc2)c(Cl)s1	-18	-1%	-27%	-4.0%	-15	0%	-0.2
CCOC(=O)C1=C(N)Oc2ccc3ccccc3c2C1c1cccc(O)c1 (stereo not drawn)	11	-10%	0%	0.0%	-1	16%	-0.3
CCCOc1ccccc1OCC(=O)Nc1cc(Cl)ccc1-n1cncn1	-16	-12%	9%	-23%	0	·	·
Cc1cc(=O)[nH]c(SCCOc2ccc3c(c2)CCC3)n1	-25	-1%	?	-0.8%	14	-2%	3.7
(more compounds)
SMILES	TRPV1 potentiator	gsp antagonist	gsp agonist	ClpP mod	CtBP-E1A blk	Sfp PPTase inh	Menin MLL FP FL
COc1cccc(OC)c1/C=C/C(=O)NC1CCCCC1	-6	-11%	22%	-17%	·	0%	0.2
CS(=O)(=O)c1ccc(Cl)c(NC(=O)CSc2n[nH]c(-c3cccs3)n2)c1	16	-1%	11%	-6.5%	-14	·	·
Cc1cccc(CS(=O)(=O)Cc2ccc(C(=O)NC3CCCCC3)o2)c1	-6	-6%	-3%	-0.5%	-11	12%	6.5
Oc1ccccc1C=NCCN=Cc1ccccc1O	4	2%	15%	0.8%	-18	20%	-2.3
